Env fusion inh: HIV envelope-mediated fusion inhibition | AID 651610 | HeLa-JRFL Env/CEM21 cell fusion, luciferase | inhibition, % at 12.3 µM | actives 1.1% (n = 360,000);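 active = mean replicate inhibition score of at least 50 and every replicate individually at or above 50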;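 also: 0% = plate neutral controls and 100% = maraviroc near 300 nM; one replicate is shown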
MT1-MMP act inh: MT1-MMP (human) activation inhibition. AID 651647. actives 0.061% (n = 360,000). P50281. HT1080 RFP-PRO-GFP cells, GFP/RFP ratio fluorescence, overnight; percent of plate control window, DMSO zero. GFP/RFP ratio change, % at 20 µM;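 active = GFP/RFP ratio change of at least 30% with cell ATP level not reduced by more than half and red fluorescence within 50% of control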; also: strong numbers were not always called active
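system = RFP-PRO-GFP reporter HT1080 cells | dosing = 20 µM single dose, 1% DMSO | timing = overnight cell settling, then overnight compound exposure, 37 °C, 5% CO2 | read-out basis = GFP/RFP fluorescence ratio | controls = DMSO and RFP-L50D-GFP cell wells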
PABP polyA inh: PABP-poly(A) binding inhibition; P11940; PABP-poly(A) RNA binding, fluorescence polarization; inhibition, % at 35 µM; actives 1% (n = 290,000); AID 2014;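 active = 50% or more with normal probe brightness, or confirmed in later tests; about a fifth of its hits are not listed in these tables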;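 also: calls also rest on retests at 20 µM and on dose response follow-up; controls were probe without protein and protein plus probe with vehicle; some compounds called inactive have numbers as strong as hits; many hits fall short of the cut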
Rce1 inh: yeast Ras-converting enzyme inhibition; Q03530; yeast membranes, quenched prenylated peptide cleavage fluorescence; calls only; actives 0.27% (n = 290,000);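 active = fall in fluorescence gain of 50% or more versus controls, with final raw signal at or below 3038400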;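 also: plate controls were neutral control wells for no effect and wells lacking membranes for full effect; tested at 10 µM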
Target sequence (Q03530 whole entry, looked up): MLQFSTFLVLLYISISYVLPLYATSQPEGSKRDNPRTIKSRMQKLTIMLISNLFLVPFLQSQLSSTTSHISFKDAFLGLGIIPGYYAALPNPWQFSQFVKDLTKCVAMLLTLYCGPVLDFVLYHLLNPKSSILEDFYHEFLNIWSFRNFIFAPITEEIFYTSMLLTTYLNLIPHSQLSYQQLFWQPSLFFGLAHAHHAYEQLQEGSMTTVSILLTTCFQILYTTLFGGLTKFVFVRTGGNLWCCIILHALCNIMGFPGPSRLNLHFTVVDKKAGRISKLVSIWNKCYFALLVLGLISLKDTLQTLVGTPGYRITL
UUG fidelity: modulators of start codon recognition fidelity in yeast. S. cerevisiae UUG-firefly luciferase reporter, luminescence/redox ratio. actives 0.13% (n = 350,000). AID 602363. activity score, % at 18.7 µM;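 active = replicate mean at a twofold rise or more, about +100% in these data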;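 also: firefly luciferase made from a UUG start codon reports start codon fidelity; reporter light over untreated wells divided by growth signal over untreated wells; some hits fall short of that in this replicate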
eIF4H inh: inhibitors of RNA binding by human eIF4H; eIF4H fluorescence polarization binding assay; inhibition, % at 35 µM; actives 0.94% (n = 290,000); AID 2012;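 active = 50% or more with normal probe brightness, or confirmed in later tests; about a fifth of its hits are not listed in these tables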;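 also: calls also rest on retests at 20 µM and on dose response follow-up; 0% = protein and probe with vehicle and 100% = probe without protein; strong numbers were not always called active; many hits fall short of the cut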
CSC inhib: cancer stem cell inhibition. cancer stem cell-like cells viability, luminescence. inhibition, % at 7.5 µM. actives 1.1% (n = 300,000). AID 2717;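 active = mean at 75% or more and at least half the replicates too; tested in HMLE shEcad cells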;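 also: 0% = median of negative and 100% = median of positive control wells; the first replicate is given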
MT1-MMP act inh RFP: also measured in MT1-MMP act inh; calls as there; RFP signal change, %; measured here: RFP expression control read;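 0 = vehicle wells; hits needed this value within 50% of zero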
* hit, by the source's call; i = inactive; / = not tested or not shown; & = joins results of further samples. The list is partial; rates above refer to the full screens.

SMILES	Env fusion inh	MT1-MMP act inh	MT1-MMP act inh RFP	PABP polyA inh	Rce1 inh	UUG fidelity	eIF4H inh	CSC inhib
CC[C@]1(c2ccccc2OC)C(=O)N(C(=O)OC)N1C(=O)OC	36	4	0	-5	i	-13	2	3
O=C(Nc1cccc(S(=O)(=O)NCc2ccco2)c1)c1ccc(Cl)cc1	32	-6	-22	/	/	-15	/	19
O=C(CCN1C(=O)c2cccc3cccc(c23)C1=O)Nc1ccccc1	9	2	1	-9	i	-11	3	2
COc1ccc(-c2csc(NC(=O)C3CC(=O)N(c4ccc5c(c4)OCCO5)C3)n2)cc1 (stereo not drawn)	6	-4	-15	7	i	/	38	15
Cc1nc(N2CCOCC2)nc(OCCN(C)C)c1[N+](=O)[O-]	4	-4	3	-1	/	/	22	-3
CN(C)S(=O)(=O)N(CC(=O)N1CCN(c2ccccc2F)CC1)c1ccccc1	10	-3	0	31	i	/	-12	-25
O=C1CCCC(O)=C1N=Nc1ccc2c(c1)OCO2	-20	6	1	1	i	-12	-5	-4
C[C@]12CC[C@@H]3c4ccc(OS(=O)(=O)O)cc4CC[C@H]3[C@@H]1CCC2=O	-4	4&3	1&-3	-2	i	-15&-14	5	-7&-13&-14
O=C(O)C1CCCN1S(=O)(=O)c1ccc(Br)cc1 (stereo not drawn)	-14	0	1	0	i	-11	-1	/
CCN(C1CCCCC1)S(=O)(=O)CCNC(=O)c1ccc2c(c1)OCO2	8	-1	-4	/	i	-4	/	/
COC(=O)C1=C(C)N(Cc2ccccc2)C(=NCc2cc(OC)c(OC)c(OC)c2)N[C@H]1c1ccc(Br)cc1	/	4	2	/	/	-15	/	26
CC(C)[C@H](NC(=O)c1ccccc1)C(=O)NC1CCCCCCC1	-1	2	-1	/	/	-10	/	6
NCCC(=O)NC[C@H]1O[C@@H](n2cnc3c(N)ncnc32)[C@H](O)[C@@H]1O	1	1	3	/	/	-19	/	/
COc1ccc2nc(NC(=O)Cc3cccs3)sc2c1	/	2	-5	5	i	-15	-1	/
Cc1[nH]c(C)c(S(=O)(=O)N2CCCCC2)c1C(=O)N1CCCCC1	1	-1	5	4	i	-2	-7	-11
CCC1CCc2c(sc(NC(=O)C3CC=CCC3C(=O)O)c2C#N)C1 (stereo not drawn)	-16	-4	1	0	i	/	6	4
COc1cc(OC)c(CN2CCCCCCC2)cc1Br	/	3	4	8	i	6	16	3
CCCC(=O)c1c[nH]c(C(=O)NCc2cccnc2)c1	12	2	6	-5	i	/	6	-5
CCCC(=O)Nc1ccc(S(=O)(=O)Nc2nccs2)cc1	-12	-1	0	/	i	/	/	-4
COc1ccc(-n2c(=O)c(CCC(=O)N3CCN(c4ccccc4O)CC3)nc3ccccc32)cc1	-3	-3	-2	/	i	/	/	-2
COc1ccccc1-n1cc(C(=O)NCC(=O)NCc2ccc(F)cc2)c2ccccc2c1=O	-12	-2	-2	3	i	/	-2	-13
CCOc1ccc(CCNC(=O)c2ccc(NC3=NC4CS(=O)(=O)CC4S3)cc2)cc1 (stereo not drawn)	-32	4	6	-7	i	-2	-11	-4
CN(C)C(=O)c1nc2ccc(Cl)cn2c1CNCc1cccc(OC(F)(F)F)c1	14	0	-3	-5	i	-21	1	-6
CN1N=C(C(=O)N2CCCC(N3CCN(c4ccc(F)cc4)CC3)C2)CCC1=O (stereo not drawn)	24	0	1	11	i	-14	7	-3
CCCc1cc(=O)[nH]c(SCC(=O)N2CCCCCC2)n1	0	0	4	/	/	-2	/	4
O=C(CN1C(=O)c2ccccc2C1=O)Nc1ccccc1C(F)(F)F	3	1	4	14	i	-3	0	-9
N/C(=N\OC(=O)CC1CCCCC1)c1cccc([N+](=O)[O-])c1	-4	0	6	-4	i	/	0	3
O=C(c1ccco1)N1CCCN(Cc2nc(Cc3ccccc3)no2)CC1	5	-8	-6	-4	i	-15	-8	-7
COc1ccc(S(=O)(=O)N2CCN(C(=O)CSC(=S)N3CCCC3)CC2)cc1	-9	-1	-2	/	/	5	/	-12
CCCC(c1nnnn1Cc1ccco1)N1CCN(c2cc(Cl)ccc2C)CC1 (stereo not drawn)	/	-47	-36	12	/	-3	-14	136*

Some of the entries so far, with bars between the fields:
canonical_smiles | Env fusion inh | MT1-MMP act inh | MT1-MMP act inh RFP | PABP polyA inh | Rce1 inh | UUG fidelity | eIF4H inh | CSC inhib
COc1ccc(S(=O)(=O)N2CCN(C(=O)CSC(=S)N3CCCC3)CC2)cc1 | -9 | -1 | -2 | / | / | 5 | / | -12
O=C(c1ccco1)N1CCCN(Cc2nc(Cc3ccccc3)no2)CC1 | 5 | -8 | -6 | -4 | i | -15 | -8 | -7
CCCC(=O)Nc1ccc(S(=O)(=O)Nc2nccs2)cc1 | -12 | -1 | 0 | / | i | / | / | -4
CN1N=C(C(=O)N2CCCC(N3CCN(c4ccc(F)cc4)CC3)C2)CCC1=O (stereo not drawn) | 24 | 0 | 1 | 11 | i | -14 | 7 | -3
CCCC(=O)c1c[nH]c(C(=O)NCc2cccnc2)c1 | 12 | 2 | 6 | -5 | i | / | 6 | -5

(list continues)
SMILES	Env fusion inh	MT1-MMP act inh	MT1-MMP act inh RFP	PABP polyA inh	Rce1 inh	UUG fidelity	eIF4H inh	CSC inhib
CC(=O)C1=C(O)C(=O)N(CCCn2ccnc2)C1c1ccc(C)cc1 (stereo not drawn)	-60	2	1	-8	i	-5	0	-27
O=C(CCCn1c(=S)[nH]c2ccc(Br)cc2c1=O)NCC1CCCO1 (stereo not drawn)	-20	0	-3	-1	i	-23	-1	-10
c1c2c(cc3sc(N4CCOCC4)nc13)OCCO2	-131	-4	0	-1	i	-82	-5	17
Cc1ccc(Nc2cc(C)nc3ccccc23)c(C)c1	18	3	-3	/	i	/	/	10
CCc1nnc(NC(=O)CN2CCN(Cc3ccc(C)cc3)CC2)s1	-24	-1	4	-2	i	12	-8	-13
C=CCNCc1cccn1-c1ccccc1	/	-2	-1	33	i	-16	6	-7
CCOc1ccc(NC(=O)CN2CC(c3ccccc3)CC2=O)cc1 (stereo not drawn)	8	3	7	-10	i	-4	-6	-23
Cc1ccc(N(Cc2cc3ccc(C)cc3[nH]c2=O)S(C)(=O)=O)c(C)c1	5	-3	-5	7	i	5	-3	-4
O=S(=O)(c1ccccc1Br)N(Cc1ccccc1)CC(O)COCc1ccccc1 (stereo not drawn)	-11	-2	-7	/	/	-11	/	/
COc1ccc(-n2c(Cc3cccn3C)nnc2SCC(=O)Nc2nccs2)cc1	-31	-2	3	-5	i	-5	-7	-3
CC1(C(=O)NS(=O)(=O)c2ccccc2)CCN1C(=O)CCc1ccc(Cl)cc1Cl (stereo not drawn)	-14	0	4	/	/	2	/	/
O=S(=O)(CCN1CCN(c2ccccc2O)CC1)c1ccc(Cl)cc1	-19	-1	-2	/	/	-10	/	/
Clc1cccc(CSc2ncnc3c2ncn3C2CCCCO2)c1 (stereo not drawn)	-22	-1	-8	/	/	-6	/	/
CCCCNC(=S)NNC(=O)c1csc(CC)c1	-152	4	0	1	i	-27	-4	-13
COc1ccccc1CC(=O)N1CCN(c2ccccc2)CC1	-2	0	3	3	i	-16	-10	-9
COc1ccc(Cl)cc1N1C(=O)C2CCCN2C1c1cccc(F)c1 (stereo not drawn)	0	0	4	8	i	-8	2	-9
CN(C)C(=O)c1cc(C(=O)c2ccccc2F)c[nH]1	10	-2	0	-11	i	-16	-3	-10
c1ccc(Cn2nnc3c(NCc4ccc5c(c4)OCO5)nc(C4CC4)nc32)cc1	/	0	1	4	i	3	-14	-16
O=C(NNc1cccc(Cl)n1)Nc1ccccc1Cl	-21	2	4	-1	i	-14	-6	-1
O=C(Cc1ccccc1)NCC(=O)N1CCC1	-1	0	-1	10	/	2	3	-1
Cc1ccc(S(=O)(=O)N(C)CCCC(=O)Nc2ccccn2)cc1	8	1	-5	/	i	-15	/	-4
COc1cc(NC(=S)NC(=O)c2ccccc2C)ccc1NC(=O)c1cccs1	/	-7	0	-8	i	-19	-7	3
CCOC(=O)c1ccc(NC(=S)N(Cc2cccnc2)Cc2ccco2)cc1	-3	1	3	4	i	-13	4	/
Cn1cc(S(=O)(=O)N2CCN(c3ccccc3)CC2)c(=O)n(C)c1=O	-11	0	4	-1	i	-9	-6	0
CC12CCC(=O)N1C(C(=O)NNC(=O)c1cccc(Cl)c1)CS2 (stereo not drawn)	-3	-7	0	/	i	0	/	-12
O=C(NCC1CCCN(Cc2ccc3nonc3c2)C1)c1cccc(C(F)(F)F)c1 (stereo not drawn)	19	0	-3	0	i	/	-2	11
CCC1CCCCN1C(=O)c1cccc(S(=O)(=O)Nc2cc(C(F)(F)F)ccc2Cl)c1 (stereo not drawn)	31	-5	-4	8	i	-2	2	22
COc1ccccc1Cc1c(-c2ccccc2)nc2ccc(Cl)cn12	-98	-3	5	/	/	-12	/	/
O=C(COC(=O)CNC(=O)c1ccc(Cl)cc1Cl)Nc1cccc(S(=O)(=O)N2CCCC2)c1	-3	4	-5	/	i	-7	/	-5
CC1(c2ccc(OC(F)F)cc2)NC(=O)N(CC(=O)NCCC2=CCCCC2)C1=O (stereo not drawn)	/	2	-5	/	/	1	/	-10
COc1ccc(N(CC(=O)N2CCc3ccccc3C2)S(=O)(=O)c2c(C)nn(C)c2C)cc1	-17	5	5	-5	/	-9	-2	-8
CC1(C2CC2)NC(=O)N(CC(=O)N2CCN(c3ccccc3Cl)CC2)C1=O (stereo not drawn)	-13	1	1	/	/	-2	/	/
O=C1CCS/C(=N\N=C\c2ccc(Cl)cc2Cl)N1	-1	-2	1	2	i	/	0	-9
O=C(COc1ccccc1Cl)N(Cc1cccs1)C1CCS(=O)(=O)C1 (stereo not drawn)	-2	-2	0	0	i	-19	-7	-15
Cc1cc(C)c2cc(C(=O)Nc3ccccc3)[nH]c2c1	-65	-3	-10	1	i	-11	1	42
O=S(=O)(Nc1ccc2[nH]ncc2c1)c1ccccc1Cl	15	-3	-4	15	i	-22	-3	-11
O=C(NCC1CCCO1)c1cc(-c2ccc(F)cc2)no1 (stereo not drawn)	-59	3	3	11	i	-26	-6	6
CC1(c2ccc(OC(F)F)cc2)NC(=O)N(CC(=O)NC2CCCCC2)C1=O (stereo not drawn)	-7	11	6	-4	i	/	-4	-18
CCCCCn1c(=O)[nH]c2cc(C(=O)NC3CCN(Cc4ccccc4)CC3)ccc2c1=O	17	/	/	/	i	-1	/	1
O=C(Nc1ccc(Nc2ccccc2)cc1)N1CCOCC1	-18	4	4	5	i	-20	-8	4
N#CCCN(CC(=O)O)S(=O)(=O)c1ccccc1	/	-6	0	14	i	-20	0	-2
COc1cccc(N2CCN(c3ncnc4c3[nH]c3ccccc34)CC2C)c1 (stereo not drawn)	/	/	/	-5	i	/	3	8
CCCCN(CC)CCNC(=O)CCC(=O)Nc1ccc2nc(N3CCN(C)CC3)cc(C)c2c1	-7	1	1	3	i	2	7	-1
CCN(CC)S(=O)(=O)c1ccc(C(=O)OCC(=O)Nc2sc3c(c2C#N)CCCCC3)cc1	-8	2	6	9	i	/	14	3
Cc1ccccc1-c1cc(C(=O)NCc2ccc(OC(F)(F)F)cc2)nn1CC1CC(c2cccc([N+](=O)[O-])c2)=NO1 (stereo not drawn)	31	2	-1	/	/	4	/	/
Nc1c(NCCc2ccccc2)c2ccccc2oc1=O	47	0	-5	-2	i	-6	1	-11
O=C(CSCc1nc2c(nnn2Cc2ccc(F)cc2)c(=O)[nH]1)Nc1c(Cl)cc(Cl)cc1Cl	31	5	2	7	i	/	-4	16
O=C(N=C1SC2CS(=O)(=O)CC2N1c1cccc(Cl)c1)C1CCCO1 (stereo not drawn)	-7	2	0	5	i	4	-7	-3
COc1ccc(F)cc1S(=O)(=O)N1CCN(C(=O)c2ccco2)CC1	2	-4	0	-6	/	-13	-2	-5
NC(=O)N/N=C/c1cn(-c2ccccc2)nc1-c1cccnc1	/	/	/	3	i	/	-11	4
c1ccc(Cc2ccc(OCCCNC3CCCC3)cc2)cc1	/	/	/	1	i	/	7	46

Compound activity (PubChem)
